Source: PubChem BioAssay (National Center for Advancing Translational Sciences (NCATS))
StopGo FLuc: Primary qHTS Assay for Foot and Mouth Disease Virus Antivirals against NCGC Sytravon and CBC Compound Libraries: Firefly Luciferase Signal | HEK cells with a luciferase reporter of 2A StopGo recoding | Potency, µM (highest dose often 57.5 µM), for the others: top-dose signal change, negative = less light | 0.23% of 120,000 active | AID 1745856, 2022; active = well fitted falling curve with a large enough effect; inconclusive = small, poorly fitted or top-dose-only effect; inactive = no such curve, though single readings can be large or run the other way; also: nearly all actives have a fitted effect of over 60% in size; overnight with compound
StopGo RLuc: Primary qHTS Assay for Foot and Mouth Disease Virus Antivirals against NCGC Sytravon and CBC Compound Libraries: Renilla Luciferase Signal. Potency, µM (doses to about 57.5 µM), for inactives: at the top dose signal change, negative = less light. 0.32% of 120,000 active. HEK cells with a luciferase reporter of 2A StopGo recoding; active means well fitted falling curve with a large enough effect; inconclusive means small, poorly fitted or top-dose-only effect; inactive means no such curve, though single readings can be large or run the other way; also: nearly all actives have a fitted effect of over 55% in size; overnight with compound
* marks the source's active call; other numbers are inactive results; ? = inconclusive; & = joins results of further samples; [ ] = dose if it differs, or a comment. % is scaled to controls: 0 for no effect and ±100 for the full control effect; potency is read from the fitted curve at half-maximal effect.

no. | mol | StopGo FLuc | StopGo RLuc
1 | CCC1CN(C(=O)N2CCC(C(=O)N3CCN(c4cc(C)ccc4C)CC3)CC2)c2ccccc2O1 (stereo not drawn) | 20µM* | ?
2 | CC(C)CCNc1nc(C(=O)OCC(=O)NC(=O)NCC(C)C)cs1 | -7.8% | -2.7%
3 | C=CCn1c(C)cc(C(=O)COC(=O)Cn2cnc3c2c(=O)n(C)c(=O)n3C)c1C | 8.4% | -9.9%
4 | Cc1cc(=O)n2c3ccccc3nc2n1CC(=O)c1ccc(Br)cc1 | 5.4% | 0.3%
5 | CCOc1ccc(S(=O)(=O)N(CC(=O)NCCc2ccc(OC)cc2)c2ccccc2)cc1 | 0.6% | -3.9%
6 | O=S(=O)(NCC(O)Cn1c2ccc(Cl)cc2c2cc(Cl)ccc21)c1ccccc1 (stereo not drawn) | 5.9% | 9.4%
7 | O=C(C1=C(Nc2ccc3c(c2)OCO3)c2ccccc2S1(=O)=O)N1CCOCC1 | 39.1%[activator] | 12.8%
8 | COc1ccccc1OCC(=O)Nc1ccc2c(c1)N(C(=O)c1cccnc1)CCC2 | 0.0% | 72.1%[activator]
9 | O=C(Nc1ccc(Cl)cc1)C1CCC(CNS(=O)(=O)c2ccc(Br)s2)CC1 (stereo not drawn) | -10.9% | -2.7%
10 | CCC1=Nc2cc(C(=O)NCc3ccccc3Cl)ccc2Sc2ccc(C)cc21 | 20.8% | 95.4%[activator]

Structures shown so far that contain an aryl methoxy group, in the order listed:
no. | mol | StopGo FLuc | StopGo RLuc
5 | CCOc1ccc(S(=O)(=O)N(CC(=O)NCCc2ccc(OC)cc2)c2ccccc2)cc1 | 0.6% | -3.9%
8 | COc1ccccc1OCC(=O)Nc1ccc2c(c1)N(C(=O)c1cccnc1)CCC2 | 0.0% | 72.1%[activator]

Following part.
no. | mol | StopGo FLuc | StopGo RLuc
11 | CCCCCCCCS(=O)CCCCO (stereo not drawn) | 3.0% | -1.0%[1.06 µM]
12 | N#Cc1nc(-c2ccco2)oc1N1CCN(C(=O)c2ccc(Cl)cc2)CC1 | 11.8% | 3.9%
13 | CCC(=O)n1nc(-c2cccnc2)nc1NCc1ccc(F)cc1 | -9.2% | -0.1%
14 | CCOC(=O)CSc1nc2ccc(NC(=O)c3ccc(F)cc3)cc2s1 | 117.8%[activator] | 14.6%
15 | CC(Sc1nnc(C2CC2)o1)C(=O)c1c[nH]c2ccccc12 (stereo not drawn) | -3.9% | -5.1%
16 | CC(C)C(=O)Nc1c(C(=O)N2CCN(c3ccccc3F)CC2)oc2ccccc12 | 5.1% | 236.4%[activator]
17 | O=C(CC1(O)C(=O)Nc2c(C(F)(F)F)cccc21)c1ccco1 (stereo not drawn) | 21.3% | 38.1%[activator]
18 | COc1ccc(/C=N/OCC(=O)OCC(=O)c2ccc(Cl)cc2)cc1 | -3.8% | -4.6%
19 | NC(N)=NN=C1c2ccccc2-c2ccccc21 | 17.3% | -12.2%
20 | CCc1cccc(NC(=O)C2CCC(CNS(=O)(=O)c3ccc4c(c3)CCCC(=O)N4)CC2)c1 (stereo not drawn) | -32.8% | -29.7%
21 | Cc1ccc(-c2csc(-c3nc(-c4ccccc4)cs3)n2)c(C)c1 | 23.1% | 8.1%
22 | Cc1cccn2cc(COc3ccc(C(=O)O)cc3)nc12 | 14.7% | -3.1%
23 | COC(=O)c1ccc(Cn2nc(-c3ccc(C)c(C)c3)ccc2=O)cc1 | -7.5% | -7.3%
24 | Cc1cc(C)c(NC(=O)COC(=O)c2ccccc2)c(Cl)c1 | 1.5% | -7.7%
25 | O=C(CSc1nccn1Cc1ccccc1)NCc1ccccc1Cl | 0.0% | -17.4%
26 | Cc1ccc2c(c1)N(CCC(=O)NCc1ccccc1Cl)C(=O)CO2 | -6.7% | 50.5%[activator]
27 | CCn1c(=O)cc(OCC(=O)N(C)c2ccc(OC)cc2)c2ccccc21 | 10.3% | 16.0%
28 | O=C(c1ccccc1)N(Cc1cccnc1)Cc1cc2ccccc2[nH]c1=O | 21.1% | 23.8%
29 | O=[N+]([O-])c1ccccc1/C=N/Nc1ccc(S(=O)(=O)Nc2ccc(Cl)cc2)cc1[N+](=O)[O-] | -11.2% | 181.0%[activator]
30 | Cc1oc2cc(OCC(=O)NC(C)c3cccs3)ccc2c(=O)c1Oc1ccccc1 (stereo not drawn) | ? | ?
31 | CC(C)(C)c1ccc(C(=O)NCC(=O)OCc2ncc(-c3ccccc3)o2)cc1 | 133.5%[activator] | -4.1%
32 | CCN(CC)C(=O)C1=C(C)Nc2nc3ccccc3n2C1c1ccc(Cl)cc1 (stereo not drawn) | -10.1% | -6.9%
33 | CCOc1ccc(CCNC(=O)C(CC)n2nc(C)c3c(C)n(-c4ccccc4)nc3c2=O)cc1 (stereo not drawn) | -13.1% | 20.8%
34 | C=CCn1c(SCc2nc3ccccc3o2)nc2ccccc2c1=O | -17.5% | -17.0%
35 | COc1ccccc1NC(=O)c1oc2ccccc2c1NC(=O)c1ccc(S(=O)(=O)N(C)C)cc1 | -4.0% | -3.2%
36 | O=C(Nc1ccc2oc(-c3ccccc3)nc2c1)c1cccnc1 | 161.5%[activator] | -0.4%
37 | Cc1nc(-c2ccccc2)sc1CCNC(=O)C(=O)Nc1ccc2c(c1)OCO2 | 5.7% | 4.9%
38 | COc1cc(Cl)c(C)cc1NC(=O)CC(c1ccc(F)cc1)N1Cc2ccccc2C1=O (stereo not drawn) | -9.0% | 19.6%
39 | CCc1cccc2sc(N3CCN(C(=O)C4CC4)CC3)nc12 | -17.5% | -27.8%
40 | COCCNC(=O)Cn1nc(-c2ccc(C)cc2)c2ccccc2c1=O | -5.7%&28.7% | -14.4%&-2.1%
41 | COC(=O)Cn1cc(/C=C2/SC(=O)N(C(C)C)C2=O)c2ccccc21 | 99.0%[activator] | 1.3%
42 | COc1ccc(NC(=O)c2csnn2)cc1 | 108.8%[activator] | -14.1%
43 | CCCN1C(=O)C2(c3ccccc31)c1c(oc3ccccc3c1=O)C(=O)N2CCO (stereo not drawn) | -16.1% | -18.5%
44 | CCCN1C(=O)c2[nH]nc(-c3ccccc3O)c2C1c1ccc(OC)c(OC)c1 (stereo not drawn) | 9.1% | 4.0%
45 | CCCCCC1CCC(c2ccc(C(=O)O)cc2)CC1 (stereo not drawn) | -14.6% | -10.6%
46 | O=[N+]([O-])c1cc(-c2nc(-c3ccccc3)no2)ccc1NC1CCCC1 | 16.2% | -4.5%
47 | CCOc1ccc(Nc2oc(/C=C/c3ccc(F)cc3)nc2C#N)cc1 | -10.0% | -13.5%
48 | Cc1ccc(-n2nc3c(=O)n(CC(=O)NC(C)C)nc(C)c3c2C)cc1 | -10.0% | -13.0%
49 | COC(=O)c1ccc(COc2ccc3c4c(c(=O)oc3c2)CCCC4)o1 | -3.2% | 19.9%[1.06 µM]
50 | C/C=C/C=C/C(=O)OCC(=O)c1ccc2c(c1)OCO2 | 19.2% | 4.6%
51 | Cc1ccc(-n2ncc3c(N4CCN(C)CC4)ncnc32)cc1C | 35.1%[activator] | 1.1%
52 | O=C(c1cc2c(=O)[nH]c3ccccc3c2s1)N1CCN(c2ccc(F)cc2)CC1 | -11.0% | 10.8%
53 | Cc1cccc(Nc2nc(-c3ccc4c(c3)CCN4S(C)(=O)=O)cs2)c1 | 16.9% | ?
54 | CCOC(=O)N1CCC(NC(=O)c2cnn(-c3ccc(OC)cc3)c2C2CCN(C(=O)OC(C)(C)C)CC2)CC1 | -20.4% | -8.2%
55 | Cc1ccccc1Cn1cc(NC(=O)c2cc(C(C)C)on2)cn1 | 139.9%[activator] | 2.3%
56 | CCN(CCCNC(=O)c1nn(-c2ccc(OC)c(Cl)c2)c(=O)c2c1c1ccccc1n2C)c1cccc(C)c1 | -11.7% | -15.0%
57 | Cc1ccc(Cn2c(SCC(=O)NC(C)(C)C)nc3c(sc4ncccc43)c2=O)cc1 | 21.2% | 26.4%
58 | COc1ccc(NC(=O)Cn2cc(S(=O)(=O)c3ccccc3)c(=O)c3cc4c(cc32)OCO4)cc1 | -1.3% | 11.5%
59 | O=C(c1ccc2c(c1)N(Cc1ccccc1)C(=O)c1ccccc1S2(=O)=O)N1CCCC1 | 39.6%[activator] | 188.0%[activator]
60 | O=C(COC(=O)COc1ccc2c(c1)CCC2)NC1CCCCC1 | 12.4% | 4.9%

Whole records, quoted from the list.
COc1ccc(NC(=O)Cn2cc(S(=O)(=O)c3ccccc3)c(=O)c3cc4c(cc32)OCO4)cc1 in the list: StopGo FLuc = -1.3%; StopGo RLuc = 11.5%
Cc1ccc(Cn2c(SCC(=O)NC(C)(C)C)nc3c(sc4ncccc43)c2=O)cc1 in the list: StopGo FLuc = 21.2%; StopGo RLuc = 26.4%

Next records.
no. | mol | StopGo FLuc | StopGo RLuc
61 | Cc1ccc2[nH]c(=O)c3cc(C(=O)NCc4ccccc4Cl)sc3c2c1 | 10.7% | 19.6%
62 | Cc1ccc(NC(=O)c2cnc(SCC(=O)N3CCOCC3)n(C)c2=O)cc1 | 51.5%[activator] | 6.9%
63 | Cc1ccccc1OCC(=O)Nc1ccc(S(=O)(=O)N(Cc2ccccc2)c2ccccc2)cc1 | -14.9% | -12.4%
64 | CNC(=O)c1ccc(S(=O)(=O)Nc2ccccc2)cc1 | 14.6% | 46.7%[activator]
65 | CC1CCCN(C(C)C(=O)N(C)CC(=O)Nc2ccccc2C(F)(F)F)C1 (stereo not drawn) | 10.5% | 7.8%
66 | COc1ccc(-c2nc(C(=O)N3CCOCC3)nn2-c2ccccc2Cl)cc1 | 11.6% | 16.0%
67 | CC(=O)OC[C@H]1O[C@@H](OC(C)=O)[C@H](OC(C)=O)[C@@H]1OC(C)=O | -12.8%[11.5 µM] | -10.8%
68 | Cc1cccc(CS(=O)(=O)Cc2ccc(C(=O)NC(C)c3ccccc3)o2)c1 (stereo not drawn) | -0.8% | 112.0%[activator]
69 | C=CCn1c(C)cc(C(=O)COc2ncnc3ccc(Br)cc23)c1C | 38.4%[activator] | -11.2%
70 | Cc1ccc(NC(=O)CSc2ccc(-c3sc(-c4ccccc4)nc3C)nn2)cc1F | 6.1% | -6.9%
71 | CC1CCN(C(=O)CSc2nnc(NC(=O)Nc3ccccc3)s2)CC1 | -9.6% | -12.5%
72 | COc1cccc(C(=O)Nc2ccccc2-c2nc3ccccc3s2)c1 | -5.4% | -4.6%
73 | CC1=C(C(=O)NCc2cccc(Br)c2)C2(CCCCC2)OC1=O | -13.6% | 1.4%
74 | Brc1ccc(-c2nnc3sc(CN4CCCCC4)cn23)cc1 | -6.3% | -3.1%
75 | Cc1ccc(SCCC(=O)OCc2cc(C#N)ccc2F)cc1 | 0.6% | -2.6%
76 | COc1ccccc1NC(=O)C1=C(C)Nc2c(C(=O)Nc3ccc(F)cc3)cnn2C1c1cccc([N+](=O)[O-])c1 (stereo not drawn) | -11.8% | 2.4%
77 | CC(=O)c1ccc(OCc2coc(-c3cccc(Cl)c3)n2)cc1 | 6.1% | ?
78 | CCc1c(C)nc2nc(-c3ccccc3)nn2c1NCc1ccc(C)cc1 | -0.6% | -12.1%
79 | Cc1[nH]c2ccccc2c1C1c2ccccc2C(=O)N1CCC(=O)NCCN(C)C (stereo not drawn) | -17.1% | -15.5%
80 | Cc1noc(C)c1C(=O)NCc1ccnc(OC2CCCC2)c1 | 2.5% | -0.9%
81 | Cc1ccc(NC(=O)N2CCN(c3ccc(Cl)c(Cl)c3)CC2)cc1 | 23.2% | -22.8%
82 | O=C(NCc1cccc(CN2CCOCC2)c1)c1cc2ccccc2oc1=O | -6.9% | -17.2%
83 | COc1cc(C2Nc3ccc(C)cc3[C@H]3OCCC[C@@H]23)cc(Br)c1O (stereo partly drawn) | -12.3% | -12.6%
84 | CCCNC(=O)COc1ccccc1NC(C)=O | 5.4% | -7.7%
85 | Cc1cc(-c2nc3ncccc3o2)ccc1NC(=O)COc1ccccc1C | -5.4% | -6.0%
86 | CC1(C)CC(=O)C2=C(C1)NC(Nc1nc3ccccc3o1)=NC2c1cccc(Cl)c1 (stereo not drawn) | -2.9% | -5.1%
87 | CCN(CC)C(=O)c1ccc(NC(=O)COc2ccc(-c3nn(C)c(=O)c4ccccc34)cc2)cc1 | 0.0% | 24.8%
88 | Cc1cc(C)cc(NC(=O)c2nn(CC(C)C)c(=O)c3ccccc23)c1 | 11.3% | 11.5%
89 | COc1ccc(-c2cc(C(=O)N3CCN(c4ccccc4)CC3)no2)cc1 | 76.9%[activator] | -19.6%
90 | O=C(c1ccc(CSc2nc3ccncc3n2Cc2cccc(F)c2)cc1)N1CCCCC1 | -16.3% | 17.0%

Reprinted from the part before: 2 entries; new compounds follow.
no. | mol | StopGo FLuc | StopGo RLuc
89 | COc1ccc(-c2cc(C(=O)N3CCN(c4ccccc4)CC3)no2)cc1 | 76.9%[activator] | -19.6%
90 | O=C(c1ccc(CSc2nc3ccncc3n2Cc2cccc(F)c2)cc1)N1CCCCC1 | -16.3% | 17.0%
91 | CN1C(=O)NC(c2ccccc2)C2=C1CN(c1ccc3ccccc3c1)C2=O (stereo not drawn) | -3.3% | -3.9%
92 | CCCC1=C(C(=O)OCC)C(c2c(F)cccc2Cl)NC(=O)N1C (stereo not drawn) | -14.2% | -12.9%
93 | CCOc1ccccc1NC(=O)C1CCN(S(=O)(=O)c2ccc3c(c2)CC(C)N3C(C)=O)CC1 (stereo not drawn) | -13.9% | -13.4%
94 | CC1=C(c2ccc(C)cc2)S(=O)(=O)N(Cc2ccc(C(=O)NCc3ccccc3F)cc2)C1=O | 10.4% | 41.3%[activator]
95 | CCCCNC(=O)NC(=O)CN(C)CCCc1ccccc1 | 11.3% | 1.9%
96 | O=C(CCn1ccc2ccccc21)N1CCN(S(=O)(=O)c2ccccc2F)CC1 | 0.8% | -7.4%
